Source: PubChem (National Center for Advancing Translational Sciences (NCATS))
Sfp PPTase inh = qHTS Assay for Inhibitors of Bacillus subtilis Sfp phosphopantetheinyl transferase (PPTase) | 4'-phosphopantetheinyl transferase ffp (Bacillus subtilis), Q9F4F7 | 310,000 tested, 3.5% active | Potency, µM, for the others: max response, negative = inhibition, actives largely listed as inhibitors | Biochemical Sfp PPTase activity, qHTS; active = well fitted inhibition curve with a large enough effect; inconclusive = small, poorly fitted or top-dose-only effect, or another doubt; inactive = no such curve, though single readings can be large or run the other way;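 also: the enzyme is Sfp with the accession as filed and its product quenches rhodamine fluorescence; potency is read from the fitted curve at half-maximal effect; 0% = enzyme reaction without inhibitor and -100% = no enzyme wells; top concentration of the series not given in the record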
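With Hepes-Na pH 7.6 buffer containing 10 mM MgCl2, Sfp (15 nM) modified BHQ-2-YbbR (12.5 uM) using rhodamine-CoA (5 uM). Two reads 30 minutes apart at 525/598 nm yielded each well's rate.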
ClpP mod = qHTS Assay for Activators of ClpP. 340,000 tested, 1.9% active. purified B. subtilis ClpP, FRET peptide cleavage, 20 min. ATP-dependent Clp protease proteolytic subunit (Bacillus subtilis (strain 168)), P80244. AID 651965, 2013. Potency, µM (series often up to 57.5 µM), inactives show at the highest dose activity change, negative = active; active = well fitted falling curve with a large enough effect; inconclusive = small, poorly fitted or top-dose-only effect; inactive = no such curve, though single readings can be large or run the other way; also: potency is read from the fitted curve at half-maximal effect; the source files actives as falling curves though it sought activators and does not explain the sign; nearly all actives have a fitted effect of over 65% in size; many hits overshoot -100%
Target sequence (P80244 whole entry, looked up): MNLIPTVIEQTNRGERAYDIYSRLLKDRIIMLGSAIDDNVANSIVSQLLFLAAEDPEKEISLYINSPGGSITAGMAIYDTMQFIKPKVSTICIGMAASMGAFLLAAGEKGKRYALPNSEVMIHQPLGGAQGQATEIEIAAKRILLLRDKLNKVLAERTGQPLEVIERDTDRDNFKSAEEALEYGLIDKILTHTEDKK
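FRET quenching reversal measured ClpP activation: 10 microg/mL B. subtilis ClpP at pH 8 with the FRET-FV decapeptide, read at 430 nm after 320 nm excitation. The 20-min minus 0-min signal was scaled between DMSO/no-enzyme wells and ADEP (5.8 microM final).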
gsp antag = qHTS for Antagonists of gsp, the Etiologic Mutation Responsible for Fibrous Dysplasia/McCune-Albright Syndrome: qHTS. gsp-mutant cells, cAMP HTRF, 30 min; control for the full effect not named in the record. Potency, µM (series often up to 76.9 µM), without a hit: at the highest dose activity change, negative = inhibition, actives largely listed as inhibitors. 340,000 tested, 0.4% active; active = falling curve of any shape with a large fitted effect; inconclusive = falling curve, mostly with a smaller effect; inactive = flat or rising curve; cell line not stated here;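 also: intracellular cAMP measured with PDE inhibitor Ro 20-1724 present during compound exposure; potency is read from the fitted curve at half-maximal effect; % is scaled to controls: 0 for no effect and ±100 for the full control effect; nearly all actives have a fitted effect of over 65% in size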
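HTRF cAMP measurement after 30 min RT detection following 30 min, 37C compound treatment alongside […] (added as 300 uM solution) in G418-selected cells seeded at 2000/well and grown 16–24 h.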
Menin-MLL FL inh = qHTS Assay for Inhibitors Targeting the Menin-MLL Interaction in MLL Related Leukemias: Competition With Fluorescein Labeled MLL-derived Peptide; Fluorescence polarization, fluorescein-MLL peptide displacement from menin; FP activity change, % at 61.4 µM; 290,000 tested, under 10 active; AID 1766, 2009; inconclusive = falling polarisation curve, or a change in total fluorescence; inactive = total fluorescence flat and polarisation flat or rising; no compound was filed as active; the % refers to the polarisation; negative = inhibition;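 also: % of control where 0% means no effect; inhibitors lower the polarisation; unlabelled MLL peptide was the positive control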
TRPML1 inh = qHTS for Inhibitors of the Human Mucolipin Transient Receptor Potential 1 (TRPML1); Mucolipin-1 (Homo sapiens), Q9GZU1; TRPML1-inducible cells, Ca2+ dye fluorescence, FDSS; active compounds read low; inhibition of EC80 agonist-evoked calcium signal; activity change, negative = inhibition, % (concentration not given with the values); 390,000 tested, 0.02% active; AID 624415, 2012; in the data active means activity change below about -50%; inconclusive means about -30% to -50%; inactive means above about -30%;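 also: stimulus is agonist 54-4 at its EC80 concentration; % is scaled to controls: 0 for no effect and ±100 for the full control effect; the text of the record puts the active cut at -80%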
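Calcium fluorescence in TRPML1-DL cells induced overnight with Tet: a 110 s read after compound pin addition, then a 110 s antagonist read after challenge with 54-4 at 4 uM final (EC80).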
gsp ag = qHTS for Agonist of gsp, the Etiologic Mutation Responsible for Fibrous Dysplasia/McCune-Albright Syndrome: qHTS; Potency, µM (doses to about 76.9 µM), inactives show at the top dose activation (cAMP increase), usual class: activators; gsp mutant cells, cAMP HTRF, 30 min; control for the full effect not named in the record; AID 624287, 2012; 340,000 tested, 0.13% active; active = well fitted activation curve with a large enough effect; inconclusive = small, poorly fitted or top-dose-only effect, or another doubt; inactive = no such curve, though single readings can be large or run the other way; cell line not stated here;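 also: phosphodiesterase inhibitor Ro 20-1724 added with compounds to block cAMP breakdown; potency is read from the fitted curve at half-maximal effect; nearly all actives have a fitted effect of over 60% in size; about a fifth of the inactives were tested at one dose only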
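Cells stably selected in G418 were plated at 2000/well, grown 16-24 hr, then given compounds in DMSO with the PDE inhibitor […] (300 uM solution added) for 30 min at 37C; cAMP was read by HTRF.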
TRPV1 potentiator = HTS Assay for Compounds that Act as Potentiators of the Vanilloid Receptor 1; potentiation, % at 8.33 µM; 320,000 tested, 0.02% active; Transient receptor potential cation channel subfamily V member 1 (Homo sapiens), Q8NER1; TRPV1-expressing cells, Fluo-8 calcium influx, capsaicin EC20 potentiation; host cell line not named in the record; control for the full effect not named in the record; AID 540277, 2011; active means potentiation above 80%; inconclusive means 30% to 80%; inactive means below 30%; also: 0% is about no effect
Target sequence (Q8NER1 whole entry, looked up): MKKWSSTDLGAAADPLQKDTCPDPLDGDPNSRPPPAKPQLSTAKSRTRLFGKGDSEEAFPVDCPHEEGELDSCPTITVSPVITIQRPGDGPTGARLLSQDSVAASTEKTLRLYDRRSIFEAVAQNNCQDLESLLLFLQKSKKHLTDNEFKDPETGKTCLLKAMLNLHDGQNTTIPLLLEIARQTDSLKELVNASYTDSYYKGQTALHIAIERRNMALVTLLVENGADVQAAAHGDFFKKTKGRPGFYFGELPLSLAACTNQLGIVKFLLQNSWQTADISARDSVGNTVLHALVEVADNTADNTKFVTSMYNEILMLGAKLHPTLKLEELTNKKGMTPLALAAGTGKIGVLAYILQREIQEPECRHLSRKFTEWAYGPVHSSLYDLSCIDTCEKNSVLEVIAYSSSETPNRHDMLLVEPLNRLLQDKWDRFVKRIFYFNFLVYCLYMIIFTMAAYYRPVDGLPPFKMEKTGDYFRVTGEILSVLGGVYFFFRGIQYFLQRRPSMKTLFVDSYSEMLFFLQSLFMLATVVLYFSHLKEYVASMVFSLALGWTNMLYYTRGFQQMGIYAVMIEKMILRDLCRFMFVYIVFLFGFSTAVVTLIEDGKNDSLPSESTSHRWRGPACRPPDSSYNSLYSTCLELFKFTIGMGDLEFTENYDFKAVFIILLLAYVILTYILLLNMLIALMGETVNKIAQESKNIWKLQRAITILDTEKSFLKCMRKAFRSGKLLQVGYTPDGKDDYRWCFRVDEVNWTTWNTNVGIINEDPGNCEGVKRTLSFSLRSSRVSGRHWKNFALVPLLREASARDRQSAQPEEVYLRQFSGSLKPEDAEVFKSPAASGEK
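Fluo-8 calcium influx in TRPV1-expressing cells, kinetic read (ex 480/em 520 nm). Compound added and read 3 min for agonist activity, followed by capsaicin at EC20 final and 2 min further read for enhancement.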
* = called active by the depositor; u = inconclusive; x = not tested or not shown; [ ] = another dose, or the depositor's remark.

no.	compound	Sfp PPTase inh	ClpP mod	gsp antag	Menin-MLL FL inh	TRPML1 inh	gsp ag	TRPV1 potentiator
1	Cc1nn(CCOc2ccccc2)c(=O)n1-c1ccc(Cl)cc1	9%	x	2%	-1.5	2	-2%[15.4 µM]	-2
2	COC(=O)c1sccc1-c1ccc(C(=O)Nc2cccnc2)o1	3%	-8.4%	5%	10	3	30%	-11
3	COc1ccc(S(=O)(=O)N2CCCC(C(=O)Nc3ccc4c(c3)OCCO4)C2)cc1 (stereo not drawn)	-11%	1.7%	u	-1.8	11	-10%	4
4	CSCCCNC(=S)N(C)CC(=O)Nc1ccc(C)cc1	-8%	x	3%	4.0	-8	23%	11
5	CC1=CC(C)(C)N(C(=O)CSc2nnc(N)s2)c2ccccc21	9%	-2.6%	-1%	-0.6	3	13%	17
6	O=C(CCc1nc(-c2ccccc2Cl)no1)NCCc1ccccc1	16%	1.1%	1%	6.7	6	-8%	1
7	O=C(Oc1ccc(=O)n(-c2ccccc2)n1)c1ccccc1	-26%	-1.0%	-10%	1.2	7	1%	-12
8	O=C1CCC/C1=C/Nc1ccc2c(c1)OCO2	-11%	-0.8%	1%	2.0	-7	9%	2

Other entries
no.	compound	Sfp PPTase inh	ClpP mod	gsp antag	Menin-MLL FL inh	TRPML1 inh	gsp ag	TRPV1 potentiator
9	O=C(O)c1cccc(S(=O)(=O)N2CCCC(c3nc4c(nnn4Cc4ccc(F)cc4)c(=O)[nH]3)C2)c1 (stereo not drawn)	8%	x	-1%	x	-9	29%	-5
10	Cc1ccc(C(=O)C2CCOC(C)(C)C2)cc1 (stereo not drawn)	25%	2.9%	2%	0.1	8	-20%	-10
11	Cc1cc(C)c(NC(=O)C2C3/C=C\CCCCC32)c(C)c1 (stereo not drawn)	6%	-1.8%	7%	6.8	-14	-3%	-14
12	CCOc1ccccc1CN1CCN(Cc2ccon2)CC1CCO (stereo not drawn)	21%	x	-1%	4.0	5	7%[15.4 µM]	-3
13	COc1cc(NC(=O)Cn2cnc3sc(C)c(S(=O)(=O)N4CCOCC4)c3c2=O)cc(OC)c1OC	11%	x	7%	-11	16	8%	-5
14	O=C(Nc1nnc(CCS(=O)(=O)c2ccc(Br)cc2)s1)c1ccc([N+](=O)[O-])cc1	12%	-0.4%	u	1.4	-11	14%	26
15	O=C(COCCOCC(=O)N(c1ccccn1)C1CCCCC1)N(c1ccccn1)C1CCCCC1	5%	-1.9%	1%	0.1	7	-22%	1
16	Cc1ccc(NC(=O)COC(=O)CCC(=O)c2cccs2)c(Br)c1	x	-0.5%	6%	x	16	14%	-13

The last 4 entries of the section before are carried over, then new ones follow:
no.	compound	Sfp PPTase inh	ClpP mod	gsp antag	Menin-MLL FL inh	TRPML1 inh	gsp ag	TRPV1 potentiator
13	COc1cc(NC(=O)Cn2cnc3sc(C)c(S(=O)(=O)N4CCOCC4)c3c2=O)cc(OC)c1OC	11%	x	7%	-11	16	8%	-5
14	O=C(Nc1nnc(CCS(=O)(=O)c2ccc(Br)cc2)s1)c1ccc([N+](=O)[O-])cc1	12%	-0.4%	u	1.4	-11	14%	26
15	O=C(COCCOCC(=O)N(c1ccccn1)C1CCCCC1)N(c1ccccn1)C1CCCCC1	5%	-1.9%	1%	0.1	7	-22%	1
16	Cc1ccc(NC(=O)COC(=O)CCC(=O)c2cccs2)c(Br)c1	x	-0.5%	6%	x	16	14%	-13
17	COc1ccc(OC)c(NC(=O)c2cccc(N3C(=O)C4C5CCC(C5)C4C3=O)c2)c1 (stereo not drawn)	-4%	-3.0%	u	-3.6	-17	-40%[inhibitor]	-11
18	CCc1cccc(NC(=O)COC(=O)C2COc3ccccc3O2)c1 (stereo not drawn)	x	-0.6%	x	x	8	u	x
19	CN(C)S(=O)(=O)Nc1ccc(Cc2ccncc2)cc1	x	0.8%	x	x	8	-63%[inhibitor]	x
20	COc1ccccc1CN1CCCC(CN(CCN(C)C)C(=O)C2CCCC2)C1 (stereo not drawn)	23%	-6.0%	-4%	-1.6	1	8%[15.4 µM]	6
21	COc1ccc(CN2CCN(Cc3ccc(Br)cc3)CC2)c(OC)c1OC	79µM*	-5.1%	9%	-2.3	18	26%	-6
22	CC1NC(=O)c2cc3ccccc3cc2-n2c1nc1ccccc1c2=O (stereo not drawn)	x	-1.0%	x	x	-3	37%	x
23	O=C(NS(=O)(=O)N1CCCC1)C1=C(N2CCCC2)COC1=O	x	0.6%	7%	x	5	x	-3
24	O=C1Nc2ccccc2C1(c1ccccc1)c1ccccc1	-4%	2.7%	-6%	1.8	-10	-5%	-6

(cont.)
no.	compound	Sfp PPTase inh	ClpP mod	gsp antag	Menin-MLL FL inh	TRPML1 inh	gsp ag	TRPV1 potentiator
25	COc1ccc(Cl)cc1N(CC(=O)Nc1ccccc1C(=O)NCc1ccco1)S(C)(=O)=O	9%	-9.4%	-10%	-0.2	12	-51%[inhibitor]	5
26	COC(=O)c1[nH]c2ccc(C)cc2c1NC(=O)CN1CCN(c2ccccc2)CC1	12%	22µM*	-25%	1.1	-1	-36%[inhibitor]	8
27	COC(=O)CNC(c1ccccc1Cl)c1cc(Br)ccc1NS(=O)(=O)c1ccc(C)cc1 (stereo not drawn)	10%	0.8%	7%	3.3	11	-10%	0
28	O=C(CSc1nc2ccc(Nc3nc(N4CCOCC4)nc(N4CCOCC4)n3)cc2s1)N1CCOCC1	24%	-2.4%	-5%	4.7	6	-17%	-12
29	Cc1cc(C)nc(NC(=NCCc2c[nH]c3ccccc23)NC(=O)Nc2ccccc2)n1	12%	-4.1%	u	5.0	16	-18%	10
30	Cc1cccc2c(=O)c(-c3ccc4c(c3)OCO4)c(NC(=O)c3ccco3)oc12	7%	-1.0%	-10%	x	-1	-12%	4
31	Clc1ccc(Cc2nn3c(Cn4nnc5ccccc54)nnc3s2)cc1	28µM*	-1.3%	10%	1.5	-2	-51%[inhibitor]	6
32	COCc1cc(C)nc(N/N=C/c2ccc(-c3cc(C(=O)O)ccc3Cl)o2)c1C#N	-15%	x	x	-1.0	x	x	8

(next part)
no.	compound	Sfp PPTase inh	ClpP mod	gsp antag	Menin-MLL FL inh	TRPML1 inh	gsp ag	TRPV1 potentiator
33	CC(C)[C@H](NC(=O)c1ccccc1)C(=O)OCC(=O)/C=C1/N(C)c2ccccc2C1(C)C	-23%	-24%	35µM*	8.4	11	-16%	-18
34	COc1cccc(-c2nc(CS(=O)CC(=O)NCc3ccccc3Cl)c(C)o2)c1 (stereo not drawn)	u	-11%	-6%	14	-4	-7%	3
35	O=C(NCCO)c1cc(-c2cc(C(=O)NCCO)c3ccccc3n2)nc2ccccc12	-10%	-1.4%	-20%	-4.3	-11	-2%[15.4 µM]	6
36	Cc1ccccc1OCCCCCn1ccnc1	13%	-3.1%	6%	1.9	4	2%	-7
37	CCn1cc(C(=O)O)c(=O)c2cc(S(=O)(=O)N3CCCCCC3)ccc21	7%	-3.6%	-5%	-4.4	1	-11%	1
38	CCOc1ccc(N2CC(C(=O)NC3CCCCCC3)CC2=O)cc1 (stereo not drawn)	21%	x	-1%	0.1	-8	-1%[15.4 µM]	3
39	Cc1ccc(NC(=O)C2C3/C=C\CCCCC32)cc1 (stereo not drawn)	14%	1.3%	14%	3.9	-10	-37%[inhibitor]	-13
40	Cc1sc2ncn(/N=C/c3ccco3)c(=O)c2c1C	10%	x	-4%	0.2	-9	20%	-11

Additional records follow:
no.	compound	Sfp PPTase inh	ClpP mod	gsp antag	Menin-MLL FL inh	TRPML1 inh	gsp ag	TRPV1 potentiator
41	O=C1NC(=S)N/C1=C/c1ccc2c(c1)OCO2	3%	-0.5%	2%	u	34	24%	-5
42	CC(=O)N1CCSc2ccc(S(=O)(=O)Nc3ccc(C)cc3)cc21	10%	-0.8%	-19%	x	12	7%	7
43	CC1=C(C(=O)OCCC#N)C(c2cc3c(cc2Br)OCO3)NC(=O)N1 (stereo not drawn)	10%	1.4%	0%	0.8	7	u	1
44	NS(=O)(=O)c1cccc(NC(=O)COC(=O)c2ccccc2C(=O)c2ccccc2)c1	x	-3.4%	-6%	x	20	2%	18
45	Cc1c(Cl)cccc1NC(=S)Nn1cnnc1	22µM*	-1.0%	5%	-3.0	1	-27%[15.4 µM]	2
46	CCCCCc1ccc(-c2ccc(/C=C/C(=O)O)cc2)nc1	14%	u	-46%	5.1	2	21%	-4
47	COc1cccc(NS(=O)(=O)c2ccc3c(c2)N(C(C)=O)CCO3)c1	3%	-3.8%	6%	-1.4	-12	-1%	1
48	COc1cc2[nH]c(=S)n(Cc3ccc(C)o3)c(=O)c2cc1OC	u	-1.3%	-7%	3.0	26	u	7

More structures follow.
no.	compound	Sfp PPTase inh	ClpP mod	gsp antag	Menin-MLL FL inh	TRPML1 inh	gsp ag	TRPV1 potentiator
49	COc1ccc(NC(=O)N2CCCC2C(=O)NCc2ccc(F)cc2)cc1 (stereo not drawn)	7%	-1.1%	-1%	-4.6	-15	6%	0
50	CCN(CC(=O)NCc1cccs1)C(=O)c1cccc(S(=O)(=O)N(CC)c2ccccc2)c1	x	-3.6%	-5%	x	13	6%	x
51	CC1CCC2(CC1)SCC(=O)N2c1ccc(F)cc1 (stereo not drawn)	-2%	x	9%	0.8	-5	16%[15.4 µM]	13
52	CCCCc1nc2cc(C(=O)N(C)CCc3cn[nH]c3)ccc2o1	11%	-2.7%	5%	-2.1	-30	-19%	-2
